Screening data: PubChem, National Center for Advancing Translational Sciences (NCATS)
StopGo reporter: High Throughput Screening for Foot and Mouth Disease Virus Antivirals; human cells with a luciferase reporter of 2A StopGo recoding; control for the full effect not named in the record; 1.2% of 410,000 active; Potency, µM (top dose mostly 57.9 µM), inactives show at the top dose signal change, negative = less light; active = well fitted falling curve with a large enough effect; inconclusive = small, poorly fitted or top-dose-only effect; inactive = no such curve, though single readings can be large or run the other way; tested in HEK293T cells; note: % is set by controls: 0 for no effect and ±100 for the full control effect; nearly all actives have a fitted effect of over 45% in size; luciferase light after 4 h
NS1 inh: qHTS Assay for Inhibitors of Influenza NS1 Protein Function. Potency, µM (doses to about 46.1 µM), for the others: at the highest dose activity, positive = more growth. 0.4% of 270,000 active. S. cerevisiae slowed by influenza A NS1, growth recovery by OD600; note: actives are rising curves; nearly all actives have a fitted effect of over 50% in size
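A cell-based growth assay was used: compounds that relieve NS1-induced slow growth of budding yeast raise OD600. Assay medium was yeast nitrogen base with ammonium sulphate and -URA supplement, pH 6.0, with 2% galactose.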
Cruzain Triton: qHTS Assay for Promiscuous and Specific Inhibitors of Cruzain (with detergent) | Cruzipain (Trypanosoma cruzi), P25779 | 0.43% of 200,000 active | Potency, µM, without a hit: max response, negative = inhibition, most hits filed as inhibitors | purified cruzain, Z-FR-AMC fluorescence, 0.01% Triton; active = well fitted curve in the direction sought with a large enough effect; inconclusive = small, poorly fitted or top-dose-only effect, or another doubt; inactive = no such curve, though single readings can be large; an effect the other way counts as inactive or inconclusive;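 note: plate controls were neutral wells for no effect and buffer without enzyme for full effect; nearly all actives have a fitted effect of over 40% in size; top concentration of the series not given in the record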
Target sequence (P25779 123-467 limits assumed): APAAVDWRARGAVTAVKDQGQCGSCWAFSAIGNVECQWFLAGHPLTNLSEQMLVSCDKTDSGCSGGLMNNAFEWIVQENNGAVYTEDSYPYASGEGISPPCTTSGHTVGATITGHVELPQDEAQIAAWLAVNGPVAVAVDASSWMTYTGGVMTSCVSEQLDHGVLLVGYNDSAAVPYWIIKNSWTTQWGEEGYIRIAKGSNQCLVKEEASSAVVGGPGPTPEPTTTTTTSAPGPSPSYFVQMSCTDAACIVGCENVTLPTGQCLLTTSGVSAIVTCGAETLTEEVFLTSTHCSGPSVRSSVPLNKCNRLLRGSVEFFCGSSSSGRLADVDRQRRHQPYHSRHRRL
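Read-out: AMC fluorescence (360 nm excitation, 450 nm emission), four reads over 2 min, first-to-third difference used. Conditions: cruzain 1.5 nM, Z-FR-AMC 2 uM, pH 5.5 acetate, 5 mM DTT, 0.01% Triton X-100.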
LASV entry inh: qHTS for Inhibitors of binding or entry into cells for Lassa Virus. 1.2% of 300,000 active. Lassa virus pseudotype entry inhibition, cell reporter; control for the full effect not named in the record. Potency, µM (highest dose often 37.9 µM), for the others: top-dose activity change, negative = inhibition, hits mostly inhibitors; active means well fitted inhibition curve with a large enough effect; inconclusive means small, poorly fitted or top-dose-only effect, or effect the other way; inactive means flat fitted curve, though single readings scatter; tested in HEK293 cells; note: % is set by controls: 0 for no effect and ±100 for the full control effect; nearly all actives have a fitted effect of over 50% in size; luciferase read-out
RE007 growth inh: qHTS Assay for Inhibitors of the HIV-1 protein Vpr | S. pombe RE007 Vpr strain, BacTiter-Glo ATP luminescence, 24 h; control for the full effect not named in the record | Potency, µM (top dose mostly 92.2 µM), for inactives: at the highest dose activity change, negative = less growth | 0.21% of 360,000 active | AID 651644, 2012; active = well fitted falling curve with a large enough effect; inconclusive = small, poorly fitted or top-dose-only effect; inactive = no such curve, though single readings can be large or run the other way;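 note: % is set by controls: 0 for no effect and ±100 for the full control effect; nearly all actives have a fitted effect of over 50% in size; the assay follows cell death caused by Vpr and the record does not say whether a fall means rescue or toxicity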
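Fission yeast strain RE007, carrying one chromosomally integrated HIV-1 vpr copy, was seeded at OD 0.01 in PMG+AL medium with 23 nL pinned compound. After 24 h at 30 °C and 99% humidity, viability was read by BacTiter-Glo luminescence.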
Marburg entry inh: qHTS for inhibitors of binding or entry into cells for Marburg Virus. Marburg virus pseudotyped entry inhibition, cell reporter; control for the full effect not named in the record; about a third of the inactives were read at about 46 µM. Potency, µM (top dose mostly 37.8 µM), inactives show at the highest dose activity change, negative = inhibition, hits mostly inhibitors. 1.8% of 300,000 active. AID 540276, 2011; active = well fitted inhibition curve with a large enough effect; inconclusive = small, poorly fitted or top-dose-only effect, or effect the other way; inactive = flat fitted curve, though single readings scatter; tested in HEK293 cells; about a fifth of its hits are not listed in these tables; note: % is set by controls: 0 for no effect and ±100 for the full control effect; luciferase read-out
SARS PLpro yeast: qHTS of Yeast-based Assay for SARS-CoV PLP. Potency, µM (highest dose often 32.9 µM), without a hit: at the highest dose activity, positive = growth rescue. S. cerevisiae expressing SARS-CoV PLpro, growth rescue; control for the full effect not named in the record. 0.19% of 330,000 active. AID 485353, 2010; note: 0% is about no effect; nearly all actives have a fitted effect of over 55% in size; growth read by luminescence after 48 h
Cruzain inh noDet: qHTS Assay for Promiscuous and Specific Inhibitors of Cruzain (without detergent) | 2.3% of 200,000 active | AID 1476, 2009 | purified cruzain, Z-FR-AMC fluorescence, no detergent | Potency, µM, for the others: max response, negative = inhibition, most hits filed as inhibitors | Cruzipain (Trypanosoma cruzi), P25779; active = well fitted curve in the direction sought with a large enough effect; inconclusive = small, poorly fitted or top-dose-only effect, or another doubt; inactive = no such curve, though single readings can be large; an effect the other way counts as inactive or inconclusive;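 note: plate controls were enzyme without inhibitor for no effect and buffer without enzyme for full effect; nearly all actives have a fitted effect of over 40% in size; top concentration of the series not given in the record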
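Detergent-free condition (0.00005% Triton X-100) in acetate buffer pH 5.5 with DTT. 1.5 nM enzyme and compound were pre-mixed 15 min, then 2 uM Z-FR-AMC substrate added; reaction progress from fluorescence change between first and third reads (60 s).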
The depositor's hits bear a star; & = joins results of further samples; [ ] = remark or other dose. Unless noted, calls come from the whole dose curve; as a rule, active means well fitted rising curve with a large enough effect; inconclusive means small, poorly fitted or top-dose-only effect; inactive means no such curve, though single readings can be large or run the other way. Potency is the fitted concentration of half-maximal effect. No enrichment for hits, and some 4.8% of all compounds hit somewhere here.

Screening COCCN(C(=O)CSc1nnc(-c2ccccc2C)n1C)c1c(N)n(Cc2ccccc2)c(=O)[nH]c1=O returned StopGo reporter -13.1%, NS1 inh 1.0%, LASV entry inh 8.7%, RE007 growth inh 4.4%, Marburg entry inh -1.6% and SARS PLpro yeast 6.7%.
For COc1ccc2cc3c(N)nn(C(=O)c4ccccc4Cl)c3nc2c1 the results were StopGo reporter inconclusive, NS1 inh -3.7%, Cruzain Triton -4.9%, LASV entry inh inconclusive, RE007 growth inh -7.7%, Marburg entry inh -28.3%&-28.3%[46.1 µM], SARS PLpro yeast -1.8% and Cruzain inh noDet -7.0%.
Screening Cc1cc(C(=O)NNC(=O)COc2ccccc2Cl)n[nH]1 returned StopGo reporter 20.0%, NS1 inh -6.8%, LASV entry inh -1.0%[46.1 µM], RE007 growth inh -2.0%, Marburg entry inh 22.6%[46.1 µM] and SARS PLpro yeast -0.8%.
For COc1ccc(N(C(=O)CCl)C(C(=O)NC2CCCCC2)c2cccnc2)cc1 (stereo not drawn) the results were StopGo reporter 11.2µM*, NS1 inh 7.7%, Cruzain Triton 0.2%, LASV entry inh 12.6µM*, RE007 growth inh -10.4%, Marburg entry inh inconclusive, SARS PLpro yeast -2.7% and Cruzain inh noDet 16.0%.
Screening Cc1oc(C)c2c(=O)cc(-c3ccc4c(c3)OCO4)cc(OC(=O)c3cccc(Br)c3)c12 returned StopGo reporter 0.0%, Cruzain Triton -3.0%, LASV entry inh 22.5%[46.1 µM], Marburg entry inh 6.9%[46.1 µM] and Cruzain inh noDet 25.1µM*.
`CCc1nnc(NS(=O)(=O)c2ccc(N/C=C\C(=O)c3ccc4ccccc4c3)cc2)s1` gave StopGo reporter -23.1%, NS1 inh -7.5%, Cruzain Triton -4.5%, LASV entry inh inconclusive, RE007 growth inh 4.9%, Marburg entry inh -22.7%, SARS PLpro yeast -8.6% and Cruzain inh noDet -14.8%.
Cc1ccccc1CN1CCN(Cc2ccccc2)CC1 was read as StopGo reporter -10.5%, NS1 inh -3.6%, RE007 growth inh 8.2% and SARS PLpro yeast -0.5%.
CC(=O)N1c2ccc(S(=O)(=O)N3CCC(C(=O)NCCc4ccc(Cl)cc4)CC3)cc2CC1C (stereo not drawn) was read as StopGo reporter inconclusive, NS1 inh 10.6%, LASV entry inh inconclusive, RE007 growth inh -18.9%, Marburg entry inh inconclusive and SARS PLpro yeast -0.8%.
Cc1ccc(NC(=O)c2sccc2C)cc1[N+](=O)[O-] was read as StopGo reporter 66.1%[activator], NS1 inh -7.3%, Cruzain Triton -4.5%, LASV entry inh inconclusive, RE007 growth inh -29.3%, Marburg entry inh inconclusive, SARS PLpro yeast -14.8% and Cruzain inh noDet -6.6%.
`COC(=O)c1cc(S(=O)(=O)N2CCN(Cc3ccccc3)CC2)c[nH]1` gave StopGo reporter -16.6%, NS1 inh -13.5%, LASV entry inh inconclusive, RE007 growth inh 0.8%, Marburg entry inh 3.7%[46.1 µM] and SARS PLpro yeast -0.9%.
For C=CCn1c(C)cc(C(=O)COC(=O)COc2ccccc2C#N)c1C the results were StopGo reporter 15.1%, NS1 inh -58.4%, Cruzain Triton -4.8%, LASV entry inh 5.6%, RE007 growth inh -4.6%, Marburg entry inh 5.3%[46.1 µM], SARS PLpro yeast -18.4% and Cruzain inh noDet -6.1%.
`O=C(CSc1ncn[nH]1)NC1CCCc2ccccc21` (stereo not drawn) gave StopGo reporter -2.4%, LASV entry inh -3.1%, RE007 growth inh -18.7%, Marburg entry inh 21.9%[46.1 µM] and SARS PLpro yeast 1.5%.
N#Cc1nc(-c2ccc(OCc3ccccc3Cl)cc2)oc1NCCCn1ccnc1 was read as NS1 inh -180.0%, Cruzain Triton -5.5%, Marburg entry inh -3.7%, SARS PLpro yeast 0.7% and Cruzain inh noDet 21.5%.
`Cc1ccc(Cl)cc1N1CCN(C(=O)c2c(C)oc3ncnc(N4CCCCC4)c23)CC1` gave StopGo reporter 0.0%, Cruzain Triton -0.2%, LASV entry inh -23.6%[46.1 µM] and Cruzain inh noDet -5.2%.
Cc1ccc(S(=O)(=O)CCSC(=N)N)cc1 was read as StopGo reporter inconclusive, NS1 inh 10.4%, LASV entry inh inconclusive, RE007 growth inh -19.4%, Marburg entry inh inconclusive and SARS PLpro yeast 0.7%.
`COc1cccc(C(=O)C2CCCN(C3CCOCC3)C2)c1` (stereo not drawn) gave StopGo reporter -7.4%, NS1 inh -0.4%, RE007 growth inh 6.7% and SARS PLpro yeast -0.4%.
For O=C(Nc1ccccc1F)c1cc(S(=O)(=O)N2CCOCC2)ccc1N1CCOCC1 the results were StopGo reporter -0.2%, LASV entry inh -20.6%, RE007 growth inh -1.7%, Marburg entry inh -3.6%[46.1 µM] and SARS PLpro yeast -3.7%.
Screening CCN(CC(=O)Nc1ccc(NC(C)=O)cc1)C(=O)c1cccc(-n2cccc2)c1 returned StopGo reporter -0.1%, LASV entry inh inconclusive, RE007 growth inh 6.4%, Marburg entry inh -4.6% and SARS PLpro yeast -0.8%.
`COc1ccc(-n2nc3cc(C)c(N)cc3n2)cc1Cl` gave StopGo reporter 46.5%[activator], NS1 inh 28.8%, RE007 growth inh -16.3% and SARS PLpro yeast 9.8%.
For Cc1cc(CC(=O)O)c(C)cc1CC(=O)O the results were StopGo reporter 0.1%, NS1 inh 1.9%, Cruzain Triton 4.8%, LASV entry inh -0.2%, RE007 growth inh 16.9%, Marburg entry inh 0.8%&0.8%, SARS PLpro yeast 5.5% and Cruzain inh noDet 7.3%.
Screening COc1ccc(C(=O)CC(c2ccccc2)C2CCCCC2=O)cc1 (stereo not drawn) returned NS1 inh 6.6%, Cruzain Triton 4.8%, LASV entry inh inconclusive, RE007 growth inh 3.6%, Marburg entry inh -0.5%, SARS PLpro yeast -0.9% and Cruzain inh noDet 17.6%.
CCOC(=O)C1CCN(c2nc3c(S(=O)(=O)c4ccc(CC)cc4)nnn3c3ccc(Cl)cc23)CC1 was read as StopGo reporter -2.0%, Cruzain Triton -3.8%, Marburg entry inh inconclusive and Cruzain inh noDet -25.4%.
`COc1ccccc1NC(=O)c1ccc(-n2cncn2)nc1` gave StopGo reporter 16.9%, LASV entry inh 13.3%[46.1 µM], RE007 growth inh -3.3%, Marburg entry inh 8.7%[46.1 µM] and SARS PLpro yeast -5.7%.
Screening CCOc1ccccc1CNC(=O)c1ccc2nc(N3CCC(C)CC3)sc2c1 returned StopGo reporter inconclusive, Cruzain Triton -0.2%, Marburg entry inh inconclusive and Cruzain inh noDet 9.6%.
CN(CC(=O)Nc1ccc(Cl)cc1)C(=O)c1ccc(COc2ccccc2)cc1 was read as StopGo reporter 7.7%, LASV entry inh inconclusive, RE007 growth inh -19.9%, Marburg entry inh inconclusive and SARS PLpro yeast 0.4%.
For COC(=O)C1CCN(Cc2cc(=O)oc3cc(OC)ccc23)CC1 the results were StopGo reporter 44.6%[activator], NS1 inh -13.0%, Cruzain Triton -20.2%, LASV entry inh 8.6%, RE007 growth inh -18.6%, Marburg entry inh 28.4%, SARS PLpro yeast -8.7% and Cruzain inh noDet 5.1%.
Screening COc1ccc(Cc2nnc(CCc3ccccc3)s2)cc1 returned StopGo reporter 51.9%[activator], NS1 inh -11.4%, RE007 growth inh -8.5% and SARS PLpro yeast -2.2%.
CCOc1cc(NC(=S)NCC2CCCO2)c(OCC)cc1NC(=O)c1ccccc1F (stereo not drawn) was read as StopGo reporter -0.3%, NS1 inh -16.0%, LASV entry inh -25.3%, RE007 growth inh 22.3%, Marburg entry inh inconclusive and SARS PLpro yeast 0.9%.
Screening Cc1ccc(-c2noc(-c3cccs3)n2)cc1 returned NS1 inh 0.8%, Cruzain Triton -4.8%, LASV entry inh -25.2%, RE007 growth inh -9.0%, Marburg entry inh -27.9%, SARS PLpro yeast 3.1% and Cruzain inh noDet -0.5%.
Screening Cc1cnc(NC(=O)CSc2nnc(Cc3ccccc3)n2C)s1 returned StopGo reporter 2.5%, NS1 inh 5.3%, Cruzain Triton -6.6%, LASV entry inh -5.9%, RE007 growth inh -3.2%, Marburg entry inh 0.9%, SARS PLpro yeast -3.1% and Cruzain inh noDet 3.8%.
For CCOc1ccc(NC(=O)Cn2c(=O)n(Cc3nc(-c4ccccc4)no3)c(=O)c3cc4c(cc32)OCO4)cc1 the results were StopGo reporter -4.6%, Cruzain Triton -1.9%, LASV entry inh -4.0%[46.1 µM] and Cruzain inh noDet -16.6%.
C=CCNC(=S)NCc1ccccc1 was read as StopGo reporter -4.3%, NS1 inh 4.8%, RE007 growth inh -6.9% and SARS PLpro yeast 0.0%.
Cc1noc(C)c1NC(=O)NC(c1ccccc1)c1ccccc1 was read as StopGo reporter -8.7%, NS1 inh -3.6%, LASV entry inh 0.2%[46.1 µM], RE007 growth inh 15.2%, Marburg entry inh 3.4%[46.1 µM] and SARS PLpro yeast 0.6%.
CCOC(=O)C1(C(F)(F)F)N=C(N(C)C)OC(N(C)C)=N1 was read as StopGo reporter -5.1%, NS1 inh -0.4%, Cruzain Triton 1.6%, LASV entry inh 27.1%, RE007 growth inh 20.0%, Marburg entry inh -2.4%, SARS PLpro yeast -6.8% and Cruzain inh noDet 1.9%.
`CCc1ccccc1NC(=O)CN(C)C(=O)CSc1nnc(Nc2cccc(C)c2C)s1` gave StopGo reporter inconclusive, NS1 inh -10.2%, Cruzain Triton -2.0%, LASV entry inh -4.8%, RE007 growth inh 2.7%, Marburg entry inh -8.3%, SARS PLpro yeast 10.8% and Cruzain inh noDet inconclusive.
`COc1cc(C(=O)OCC(=O)NC2CCCC2)cc(NC(=O)c2ccco2)c1OC` gave StopGo reporter 7.9%, NS1 inh 4.5%, Cruzain Triton -2.8%, LASV entry inh -0.5%, RE007 growth inh 6.4%, Marburg entry inh -12.5%, SARS PLpro yeast 0.0% and Cruzain inh noDet 7.5%.
